Vaccinia pol inh – inhibitors of vaccinia virus processive DNA synthesis (E9 polymerase); in vitro processive DNA synthesis, absorbance read-out; active compounds read low; some inactives read as strong as hits; normalized absorbance, % (test concentration not listed); hit rate 0.94% among 46,000; AID 493162;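 active means replicate mean up to 90% and picked by the depositor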;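 further: 100% = median of the test wells of a plate; 100 nL library stock went into each well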
Numbers without * were called inactive.

SMILES	Vaccinia pol inh
COc1ccc2c(c1OC)C(=O)OC2NC(=O)c1cnn(-c2ccccc2)c1N (stereo unspecified)	100
CCc1ccc(NC(=O)Cn2cnc3c(cnn3-c3ccccc3)c2=O)cc1	93
CC1(C)CC(=O)C2=C(C1)OC(N)=C(C#N)C2c1ccoc1 (stereo unspecified)	96
O=c1sc2c(n1-c1ccccc1)SCC1COc3ccccc3C21 (stereo unspecified)	100
Cc1sc2ncn(-n3cccc3)c(=O)c2c1C	100
O=C1c2ccccc2CN1Cc1ccccc1	91
CCc1cc(=O)oc2cc(OC3CCCCC3=O)ccc12 (stereo unspecified)	100
O=C(c1ccccc1F)N1c2ccccc2Sc2ccccc21	94
O=C(Cn1nnc(-c2cccc(C(F)(F)F)c2)n1)NCc1ccc(Cl)cc1	98
O=C1CC2(CCCC2)C(=O)N1C1CCN(c2ncc(C(F)(F)F)cc2Cl)CC1	104
Nc1c(C(=O)c2ccccc2)oc2ccccc12	99
O=C(Nc1nc2ccccc2s1)c1cnccc1C(F)(F)F	100
Cc1c(C)n(CC(O)CNCC2CCCO2)c2ccccc12 (stereo unspecified)	97
CCn1c(CCCNC(=O)Cc2ccccc2)nc2ccccc21	100
COCCN1Cc2cccc(C(=O)N3CCN(C4CCCCC4)CC3)c2C1=O	93
Cc1ccc(-n2nc(C)c(C(C)(O)C(F)(F)F)c2N)cc1 (stereo unspecified)	102
CCc1ccc(NC(=O)CCn2c(=O)oc3ccccc32)cc1	100
CCN1CCCC1CNC(=O)CSc1cc(=O)n(C)c2cc(Cl)ccc12 (stereo unspecified)	82
COC(=O)c1ccccc1NC(=O)C1CCCCC1C(=O)O (stereo unspecified)	99
O=C(O)c1ccc(N=Cc2ccc(OC(=O)c3sc4ccccc4c3Cl)cc2)cc1	100
Oc1ccc(-c2cnc(-c3ccc(O)cc3)nc2)cc1	101
O=C1c2ccncc2C(=O)N1CO	108
O=C(O)CCCC(=O)Nc1cccc(C(F)(F)F)c1	100
CSc1nc2ccccc2n1CC(=O)Nc1ccccc1	100
Cc1c(C(=O)N2CCN(c3cccc(Cl)c3)CC2)sc2nc[nH]c(=O)c12	100
O=C(Nc1ccc2c(c1)CCC2)c1cc(=O)[nH]c2ccccc12	102
CN(/N=C/c1ccncc1)C1=NCCN1	100
Cc1cc(C)n(-c2ccnc3cc(Cl)ccc23)n1	112
Cn1cccc1C(=S)NC(=O)Nc1ccccc1Cl	102
O=C1c2ccccc2C2(CCCC2)C(=O)N1Cc1ccccc1	108
COc1ccccc1C1OC(=O)C[C@H]1C(=O)Oc1cccc(C(F)(F)F)c1 (stereo partly specified)	98
CC1CCN(C(=O)Cc2noc3ccccc23)CC1	96
COc1ccccc1OCc1nc2ccccc2[nH]1	101
CC(C)NC(=O)c1ccc2c(c1)N(Cc1ccccc1)C(=O)CS2	101
CC(Nc1ncnc2ccccc12)C(=O)O (stereo unspecified)	104
CC1CCCC(NC(=O)CCCn2c(=O)[nH]c3cc(Cl)ccc3c2=O)C1C (stereo unspecified)	103
CCOc1cc(/C=C2\SCOC2=O)ccc1O	98
CC1=C(C(=O)N(C)Cc2ccccc2)C2(CCC(C)CC2)OC1=O (stereo unspecified)	98
O=C(ON(Cc1cccc(C(F)(F)F)c1)Cc1cccc(C(F)(F)F)c1)c1ccc(Cl)cc1	98
COC(=O)C1CCCN1S(=O)(=O)c1ccccc1 (stereo unspecified)	100
Cc1ccc(-n2c(SCC(=O)C(C)(C)C)nnc2-c2ccncc2)cc1	100
CCC(=O)NCCc1cc2ccc(C)cc2[nH]c1=O	100
CCN1C(=O)/C(=N/n2cnnc2)c2ccccc21	100
CN(C)C(=S)SCC(=O)Nc1ccc(Cl)c(C(F)(F)F)c1	99
O=C(Cc1ccc(Cl)cc1)Nc1cccc(-c2nc3ccccc3o2)c1	100
Cc1ccccc1OCC(=O)OCC(=O)NC1CC1	105
CCN1CCCC1CNC(=O)c1[nH]c2cc(OC)ccc2c1Sc1ccc(Cl)cc1 (stereo unspecified)	101
Cc1c(Cl)cccc1Nc1nc(N)nc(CSC(=S)N(C)C2CCCCC2)n1	100
CC(C[N+](C)(C)C)OC(N)=O (stereo unspecified)	94
CCn1c2ccccc2c2cc(NC(=O)C(C)C)ccc21	94
CCNC(=S)N(CCc1c(C)[nH]c2ccccc12)Cc1ccccn1	96
CCn1c2c(n[n+]1[O-])C(=O)c1ccccc1C2=O	79
O=C(Nc1ccccn1)c1cccc(C(=O)Nc2ccccn2)c1	96
O=C(Nc1nnc(-c2ccc3c(c2)CCCC3)o1)C1CCCCC1	98
CC1CCCC(NC(=O)COC(=O)c2ccc(C#N)cc2)C1C (stereo unspecified)	106
O=C(NCc1ccccc1)C1Cc2ccccc2CN1S(=O)(=O)c1ccc(F)cc1 (stereo unspecified)	94
C=CCn1c(=O)c2c(nc3n2CC(C)CN3Cc2ccccc2)n(C)c1=O (stereo unspecified)	91
COc1cc(N)ccc1NC(=O)c1ccco1	104
Cc1sc2ncnc(SCC(=O)c3ccc4c(c3)OCCO4)c2c1C	101
COc1ccc(-n2ccsc2=S)cc1	92
Next part:
SMILES	Vaccinia pol inh
NC1=NC(Cc2ccccc2)CC(=O)N1 (stereo unspecified)	106
CCC(=O)N1CCc2cc(S(=O)(=O)Nc3ccc(CC)cc3)ccc21	105
N#CC1=C(N)SC(N)=C(C#N)C12C(=O)N(CCc1ccccc1)c1ccccc12	104
CN(C(=O)c1nc(-c2ccc(Cl)cc2)n2c1CCCCC2)C1CCCCC1	93
O=C1CN(C(=O)/C=C/c2ccccc2)CCN1	104
O=C(NCCCN1CCCC1=O)c1cc(=O)c2ccccc2o1	92
O=C(O)CCc1nc2ncccc2c(=O)n1Cc1ccc(F)cc1	98
COc1ccc(C(=O)N2CCc3cc(OC)c(OC)cc3C2)cc1OC	98
CC(c1ccncc1)N(CCN(C)C)C(=S)Nc1cc(F)cc(F)c1 (stereo unspecified)	93
Cn1cc(C(=O)N2CCCC2)c(=O)c2cc(S(=O)(=O)N3CCCC3)ccc21	102
CC(=O)Nc1ccc(OCC(O)CN2C(C)(C)CC(O)CC2(C)C)cc1 (stereo unspecified)	101
COc1ccc(-c2c(C)nn3c(N)c(-c4ccccc4)cnc23)cc1	100
CCCOc1cccc2c1CCN(C)C2=O	101
COc1cccc2c1OC1=C(C(=O)CC(C)(C)C1)C2CC(=O)c1ccc(F)cc1 (stereo unspecified)	96
CCCn1c(SC(C)C(=O)O)nc2ccccc21 (stereo unspecified)	100
CC(C)(C)S(=O)(=O)/C(C#N)=C/N1CCC(n2cccc2)CC1	100
Oc1c(C=NCc2ccccc2)sc2ccccc12	99
CC(NC(=O)Cn1cccc1C(=O)c1ccccc1)C12CC3CC(CC(C3)C1)C2 (stereo unspecified)	102
CC(C)C(=O)Nc1sccc1C#N	111
Cc1csc(NC2c3ccccc3C(=O)N2Cc2ccccc2)n1 (stereo unspecified)	99
O=S1(=O)CCC(NC(=S)SCc2ccccc2)C1 (stereo unspecified)	99
CCCC1C2c3ccccc3C(c3ccccc32)C1C(=O)Nc1ccccc1OC (stereo unspecified)	96
CN1C(=O)/C(=C2\SC(=S)N(c3ccc(C(=O)O)cc3)C2=O)c2ccccc21	92
O=C(O)CSc1cccc2cccnc12	97
COc1ccc(N(C(=O)Nc2ccccc2N)C(C)C2C(C)(C)C2(C)C)cc1 (stereo unspecified)	100
O=C(OCc1cnc(Cl)s1)c1cccc(Cl)c1	109
Nc1nc(Cl)cc(Oc2ccc(Cl)cc2)n1	100
CNC1c2cccc(OC)c2OCC1CO (stereo unspecified)	98
Cc1ccc(-c2csc(-n3sc4ccccc4c3=O)n2)cc1	102
CCN1CCN(Cc2ccc(NC(=O)Cc3noc4ccccc34)cc2)CC1	90
O=C(O)Cc1sc(-c2ccccc2)nc1-c1ccccc1	100
Cc1cc(C)c(C(=O)O)c(N)n1	127
CC1=C(c2ccc(C)cc2)S(=O)(=O)NC1=NC1CCN(Cc2ccccc2)CC1	99
Cc1cccc(-n2ncc3c(Nc4ccc(-c5ccccc5)cc4)ncnc32)c1	100
COC(=O)c1cc(Br)c(-n2cccc2)cc1OC	92
CCc1ccc(S(=O)(=O)/N=C2\C=CC(=O)c3ccccc32)cc1	101
O=C1CSc2cc(S(=O)(=O)NN3CCOCC3)ccc2N1	95
COCCn1c(C)cc(C(=O)CSc2ncnc3sc(C)c(C)c23)c1C	111
Cc1oc(C(C)(C)C)cc1C(=O)NCc1ccc(C(=O)O)o1	98
COc1ccccc1-c1cc(C(F)(F)F)nc(NCc2ccco2)n1	102
c1ccc(Nc2ccccn2)cc1	99
Cc1ccc(C)c(/C(O)=C2/C(=O)C(=O)N(CCc3ccccc3)C2c2ccc(O)cc2)c1 (stereo unspecified)	97
N#Cc1ccc(OCc2ccc(Cl)nc2)cc1	109
COc1cccc(-n2cc(C(=O)NC(C)C)c3ccccc3c2=O)c1	83
O=C(CSc1nc2cc(Cl)ccc2o1)NC1CCCC1	105
COc1ccc2c(c1)CCC1C2=NN(C(C)=O)C1c1ccccc1 (stereo unspecified)	100
CC(=O)Oc1ccc(N2C(=O)CCC2=O)cc1	117
O=C(/C=C/C=C/c1ccco1)c1ccccc1	83
CCOC(=O)C1=C(c2ccc(OC)cc2)NC(=O)NC1c1ccc(OC)cc1 (stereo unspecified)	99
O=C(/C=C/c1c[nH]c2ccccc12)N1CCCCC1	97
CCOc1ccc(CCl)cc1OCC	100
O=C(COc1ccc(C2=Nc3ccccc3NC(c3ccccc3)C2)cc1)Nc1ccccc1 (stereo unspecified)	110
COc1ccccc1OCCn1cc(/C=C2\Cc3ccccc3C2=O)c2ccccc21	79
O=C(O)CSc1ncc(C(F)(F)F)cc1Cl	113
CCCCN(C)c1nc2ccccc2c(=O)n1-c1ccc(Cl)cc1	98
O=S(=O)(c1ccc(F)cc1)N1CCc2ccccc21	100
CN(C(=O)c1oc(=O)c2ccccc2c1-c1ccccc1)c1ccccc1	97
FC(F)(F)c1nc2ccc(Cl)cc2[nH]1	99
O=C(NCc1cccnc1)c1cccc2sc(N3CCCc4ccccc43)nc12	86
COc1cc(NC(=O)c2cccc(Br)c2)nc(OC)n1	99

By substructure: those above with a CF3 group.
SMILES	Vaccinia pol inh
O=C(Cn1nnc(-c2cccc(C(F)(F)F)c2)n1)NCc1ccc(Cl)cc1	98
O=C1CC2(CCCC2)C(=O)N1C1CCN(c2ncc(C(F)(F)F)cc2Cl)CC1	104
O=C(Nc1nc2ccccc2s1)c1cnccc1C(F)(F)F	100
Cc1ccc(-n2nc(C)c(C(C)(O)C(F)(F)F)c2N)cc1 (stereo unspecified)	102
O=C(O)CCCC(=O)Nc1cccc(C(F)(F)F)c1	100
COc1ccccc1C1OC(=O)C[C@H]1C(=O)Oc1cccc(C(F)(F)F)c1 (stereo partly specified)	98
O=C(ON(Cc1cccc(C(F)(F)F)c1)Cc1cccc(C(F)(F)F)c1)c1ccc(Cl)cc1	98
CN(C)C(=S)SCC(=O)Nc1ccc(Cl)c(C(F)(F)F)c1	99
COc1ccccc1-c1cc(C(F)(F)F)nc(NCc2ccco2)n1	102
O=C(O)CSc1ncc(C(F)(F)F)cc1Cl	113
FC(F)(F)c1nc2ccc(Cl)cc2[nH]1	99

Further structures
SMILES	Vaccinia pol inh
O=C(NCCc1ccccc1)c1ccc(CS(=O)(=O)Cc2ccccc2F)o1	101
CC(=O)Nc1sc(=Nc2ccc(C)c(C)c2)n(C(C)=O)c1-c1ccc2c(c1)OCO2	105
COc1ccc(-c2ncncc2-c2csc(C)n2)c(O)c1OC	101
COc1cc(CNc2ccccc2)cc(OC)c1OC	97
CCOC(=O)c1oc2ccccc2c1CN1CCN(C(=O)c2ccccc2)CC1	106
CCCc1cc2c(=O)c(-c3ccccn3)coc2cc1O	100
O=C(Cn1ccn(-c2ccccc2)c(=O)c1=O)Nc1ccccc1	109
COc1ccccc1C(=O)Nc1cccc(-c2csc(-c3ccccc3)n2)c1	100
Cc1cc(S(=O)(=O)N2CCOCC2)ccc1F	92
COC1CC2C(=O)OC(C(=O)O)C2C(OC)C1OC (stereo unspecified)	100
COC(=O)c1c(-c2ccccc2)csc1N	92
Nc1c(C(=O)Nc2ccccc2)sc2sc(C(=O)Nc3ccccc3)c(N)c12	101
c1ccc(-n2c3c(c4ccccc42)CCCC3)cc1	103
O=C(/C=C/c1ccccc1)Nc1c2c(nn1-c1ccccc1)CSC2	102
CCn1ncc(C2=NOC(C(=O)O)C2)c1C (stereo unspecified)	102
CC1CCCC(NC(=O)CNC(=S)N(Cc2ccc(F)cc2)C2CCCCC2)C1C (stereo unspecified)	108
CCN1C(=O)c2ccccc2Sc2ccc(NC(=O)NCc3ccccc3)cc21	104
COCc1cc(=O)[nH]c(/N=C(\N)Nc2ccccc2)n1	100
Cc1cc(C=C2C(=O)CCCC2=O)c(C)n1-c1ccccc1	93
Cc1ccc(C(=O)CSCC(=O)Nc2ccccc2)s1	89
O=C(COc1ccccc1)OCC(=O)c1cccc(C(F)(F)F)c1	101
Cc1cc(NS(=O)(=O)c2ccc(NC(=O)c3ccncc3)cc2)nc(C)n1	98
O=C(Nc1cc(Cl)cc(Cl)c1)C(Sc1cccc[n+]1[O-])c1ccccc1 (stereo unspecified)	100
O=C(OCC(=O)N1CCCCC1)c1ccc(OC(F)(F)F)cc1	99
C=CCOc1ccc(C2c3c(oc4ccc(F)cc4c3=O)C(=O)N2CCOC)cc1 (stereo unspecified)	100

A second format for part of the listing above.
| smiles | Vaccinia pol inh |
| --- | --- |
| O=C(Nc1cc(Cl)cc(Cl)c1)C(Sc1cccc[n+]1[O-])c1ccccc1 (stereo unspecified) | 100 |
| O=C(OCC(=O)N1CCCCC1)c1ccc(OC(F)(F)F)cc1 | 99 |

Screening data: PubChem BioAssay, ICCB-Longwood Screening Facility, Harvard Medical School

An excerpt. The share of hits here may be higher or lower than overall.
